Screens (PubChem BioAssay)
PV pol inh: poliovirus RNA polymerase inhibition; P03300; poliovirus polymerase elongation, fluorescence polarization; stronger effect = lower value; % elongation, % (compound at 16.7 µg/mL); 0.66% of 150,000 active; in the data active = % elongation below about 90%; also: some results filed as inactive read as strong as hits
Target sequence (P03300 1749-2209 limits assumed): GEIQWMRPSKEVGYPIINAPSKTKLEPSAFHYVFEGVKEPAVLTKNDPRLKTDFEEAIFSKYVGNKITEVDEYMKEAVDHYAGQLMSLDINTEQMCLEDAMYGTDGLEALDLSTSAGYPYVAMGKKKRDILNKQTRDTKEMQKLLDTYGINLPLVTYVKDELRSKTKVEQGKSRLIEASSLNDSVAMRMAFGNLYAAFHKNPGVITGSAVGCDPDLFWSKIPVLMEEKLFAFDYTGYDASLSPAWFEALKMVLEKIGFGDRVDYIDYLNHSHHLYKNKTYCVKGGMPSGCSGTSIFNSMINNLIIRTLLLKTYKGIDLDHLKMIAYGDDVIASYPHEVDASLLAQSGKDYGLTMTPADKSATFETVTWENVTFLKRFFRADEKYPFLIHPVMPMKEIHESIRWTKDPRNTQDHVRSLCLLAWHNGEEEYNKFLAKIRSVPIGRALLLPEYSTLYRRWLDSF
PV pol inh intensity: recorded beside PV pol inh, whose call it bears; % elongation; measured here: total intensity read-out; formula for this scale not given here;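 total fluorescence in place of polarization; lower means less elongation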
* hit, by the source's call.

Every second line gives: PV pol inh	PV pol inh intensity
Cc1ccc(N(CC(=O)Nc2ccc(Br)cc2)S(=O)(=O)c2cccs2)cc1
 : 107	108
CCc1ccccc1NCc1nnc2n1CCCCC2
 : 115	121
COC(=O)c1ccccc1NC(=O)CSc1n[nH]c(C)n1
 : 107	109
Cc1ccc(CN(Cc2ccco2)C(=O)COc2cccc(C)c2C)o1
 : 108	106
CCn1c2ccccc2c2cc(NC(=O)COc3cccc(C)c3)ccc21
 : 103	109
Cc1ccc(NC(=O)CN2C(=O)CSc3ccc(S(=O)(=O)N4CCCC4)cc32)c(C)c1
 : 110	113
Cc1ccc(Cl)cc1N1CCN(C(=O)CCSCc2ccccc2F)CC1
 : 116	110
COc1ccc(-c2cc(C(=O)Oc3cccc(C)c3)c3ccccc3n2)cc1
 : 107	114
O=C(CCOc1ccccc1)N(Cc1cccnc1)c1nc2ccc(Cl)cc2s1
 : 100	98
COC(=O)c1ccccc1NC(=O)Cn1c(CCC(=O)O)ccc1-c1ccc(C)cc1
 : 106	110
CC1CCN(c2csc3ccc(F)cc3c2=O)CC1
 : 105	97
Cc1ccccc1OCC(=O)Nc1ccccc1C(=O)OCc1cc(=O)n2c(C)csc2n1
 : 106	110
CCc1ccccc1N(C)S(=O)(=O)c1ccc2c(c1)C(C)(C)C(=O)N2C
 : 114	116
CC(C)c1ccc(NC(=O)CC2NCCNC2=O)cc1 (stereo unspecified)
 : 103	101
Cc1nn(CCC(=O)N2CCN(c3ccccc3)CC2)c(C)c1S(=O)(=O)N1CCCC1
 : 107	110

Next structures:
Every second line gives: PV pol inh	PV pol inh intensity
O=C(NCc1ccc(F)cc1)c1cc(-c2ccc(Cl)cc2)n[nH]1
 : 100	96
Cc1ccc(C(=O)Nc2cccc(-c3nc4cccnc4s3)c2C)cc1
 : 108	107
O=S(=O)(c1ccccc1F)N1CCC(Oc2ccc(-n3cnnn3)cc2)CC1
 : 111	109
Cc1ccc(S(=O)(=O)N(CC(=O)Nc2c(C)cccc2C)c2cccc(Cl)c2)cc1
 : 106	107
Cc1oc2ncn(CC(C)C)c(=O)c2c1C(=O)Nc1cc(F)ccc1F
 : 104	107
Cc1ccc(-n2c(/C=C/c3ccccc3)nc3ccccc3c2=O)cc1Cl
 : 109	107
COc1ccc(Cl)cc1C(=O)NCc1nc(-c2cccc(C)c2)no1
 : 102	110
COC(=O)c1cc(NC(=O)c2ccc3c(c2)NC(=O)c2ccccc2S3)cc(C(=O)OC)c1
 : 104	107
CCCNC(=O)c1cnc2c(-c3ccc(OCC)c(OCC)c3)c(C)nn2c1-c1ccccc1
 : 106	107
O=C(Nc1c(C(=O)N2CCN(c3ccc(F)cc3)CC2)oc2ccccc12)c1c(F)cccc1F
 : 105	109
Cc1ccc(OCCCCn2c(-c3ccc(Cl)cc3)nc3ccccc3c2=O)cc1
 : 105	107
Cc1ccc(NC(=O)CN2C(=O)COc3ccc(S(=O)(=O)N4CCOCC4)cc32)cc1N(C)C
 : 123	124
COc1ccc(C2C=C(c3ccc(C)cc3)Nc3c(C(=O)Nc4ccccc4)cnn32)cc1 (stereo unspecified)
 : 93	191
COc1ccc(N2CC(NC(=O)COc3ccc4ccccc4c3)CC2=O)cc1 (stereo unspecified)
 : 108	109
COc1ccc2c(c1)c(CC(=O)Nc1cc(C)c(OC)c(C)c1)c(C)n2C(=O)c1ccc(Cl)cc1
 : 106	107

New compounds follow.
Every second line gives: PV pol inh	PV pol inh intensity
CCC(=O)Nc1cc(-c2nc3cc(C)cc(C)c3o2)ccc1C
 : 108	110
COc1ccc(-c2noc(CCC(=O)N(C)c3cc(Cl)ccc3OC)n2)cc1
 : 117	118
COc1ccc(C(=O)Nc2onc3c2CCCC3)cc1
 : 109	116
Cc1ccc(NC(=O)/C=C/c2ccc(Cl)cc2)c(Br)c1
 : 101	108
CCC(Sc1nc2ccccc2c2nc(-c3ccccc3)nn12)C(=O)Nc1cccc(OC)c1 (stereo unspecified)
 : 109	111
O=C(CCSCc1cnn(-c2ccccc2)c1-n1cccc1)NCc1ccc(Cl)cc1
 : 106	111
CCc1ccc(NC(=O)N(Cc2ccc(C)cc2)Cc2cccn2-c2nnc(N3CCCC3=O)s2)cc1
 : 105	106
O=C(Cn1ncc2c1-c1ccccc1OC2)N1CCN(c2ccccc2F)CC1
 : 109	112
CCOC(=O)c1cc(NC(=O)c2ccc(C)cc2)c(=O)n2c1oc1ccccc12
 : 97	101
O=C(NCCCN1CCCCC1)c1ccc2c(c1)sc1nc(-c3ccc(F)cc3)cn12
 : 99	91
Cc1c(-c2nnc(SCC(=O)Nc3ccc(Cl)cc3)o2)nnn1-c1ccc(F)cc1
 : 106	112
O=c1oc2ccccc2cc1-c1cn2cc(Cc3cc(Cl)ccc3Cl)sc2n1
 : 105	105
COc1ccc2[nH]c(=O)c(CN(C(=O)c3cccc(Cl)c3)c3cccc(C)c3)cc2c1
 : 119	121
Cc1ccc(S(=O)(=O)c2nc(S(C)(=O)=O)sc2NCc2ccccc2)cc1
 : 104	106
COc1ccc(-c2noc(-c3cccnc3N3CCN(c4ccc(OC)cc4)CC3)n2)cc1
 : 106	109

The results go on.
Every second line gives: PV pol inh	PV pol inh intensity
CCOc1ccc(NC(=O)Cn2c(=O)cc(C)c3c(C)nn(-c4ccc(CC)cc4)c32)cc1
 : 110	100
Cc1cccc(NS(=O)(=O)c2ccc(-n3cccn3)cc2)c1C
 : 107	108
Fc1ccc(-c2nc(Nc3cccc(C(F)(F)F)c3)nc3c2COc2ccccc2-3)cc1
 : 110	111
COc1ccccc1N1CCN(C(=O)c2ccc3c(c2)N(Cc2cc(C)ccc2C)C(=O)c2ccccc2S3(=O)=O)CC1
 : 103	104
Brc1ccc(-c2cn3cc(Cc4ccccc4)sc3n2)cc1
 : 109	109
COc1ccc(Cl)cc1NC(=O)CN1C(=O)COc2ccc(S(=O)(=O)NC3CCCC3)cc21
 : 111	109
Cc1ccc(C)c(N2CCN(C(=O)C3CCN(c4nc5ccc(C)cc5[nH]4)CC3)CC2)c1
 : 110	110
FC(F)(F)c1cccc(Nc2nc3nonc3nc2Nc2ccc(Cl)cc2)c1
 : 114	113
COc1ccc(NC(=O)CCS(=O)(=O)c2ccc3c(c2)n(C)c(=O)c(=O)n3C)cc1Cl
 : 105	105
Cc1ccccc1-n1nc(C)c2c1NC(=O)CSC2c1ccccc1C(F)(F)F (stereo unspecified)
 : 107	108
CCN(CC)S(=O)(=O)c1ccc2c(c1)N(CC(=O)N1CCN(c3cc(Cl)ccc3C)CC1)C(=O)CO2
 : 104	107
CC(C)c1nc2ccc(C(=O)NC(C)c3ccccc3)cc2o1 (stereo unspecified)
 : 114	99
Cc1ccc(CNC(=O)CCCCn2c(=O)c3ccccc3n(Cc3ccc(C)cc3)c2=O)cc1
 : 106	105
CCOc1ccc(C(C)C)cc1S(=O)(=O)Nc1cccc(-c2ccc(N3CCOCC3)nn2)c1
 : 110	110
Cc1ccc2c(c1)sc1nc(-c3cc4cc(Cl)ccc4oc3=O)cn12
 : 101	99

Two of the compounds above, as tab-separated lines.
Structure	PV pol inh	PV pol inh intensity
COc1ccc2c(c1)c(CC(=O)Nc1cc(C)c(OC)c(C)c1)c(C)n2C(=O)c1ccc(Cl)cc1	106	107
Cc1ccc(Cl)cc1N1CCN(C(=O)CCSCc2ccccc2F)CC1	116	110

Continued:
Every second line gives: PV pol inh	PV pol inh intensity
COc1ccc(NC(=O)Cc2csc(COc3cccc(C)c3)n2)c(OC)c1
 : 109	116
O=C(Nc1cc(Cl)ccc1O)c1cc(-c2ccc3c(c2)OCO3)on1
 : 103	106
COc1ccccc1NC(=O)C1=C(C)Nc2nc(SCc3ccccc3Cl)nn2C1c1ccncc1 (stereo unspecified)
 : 104	104
CCc1cc(C(=O)Nc2cnn(Cc3ccccc3C)c2)no1
 : 104	105
CCC(C)NS(=O)(=O)c1ccc(N2CCCCS2(=O)=O)cc1 (stereo unspecified)
 : 112	100
Cc1c(-c2ccccc2)c(=O)oc2c(CN3CCN(C)CC3)c(O)ccc12
 : 95	89
Cc1ccccc1CNC(=O)CCCn1ncn2c(cc3occc32)c1=O
 : 106	110
COc1ccc(Cn2c(=O)c3oc4ccccc4c3n(Cc3cccc(C)c3)c2=O)cc1
 : 101	107
O=C(c1cc(-c2ccc(Cl)cc2)on1)N(Cc1cccc(F)c1)Cc1ccco1
 : 109	102
CCOc1ccccc1NC(=O)C1CCN(S(=O)(=O)c2ccc(Br)cc2)CC1
 : 107	115
COc1ccccc1Nc1c2c(nc3ccc(NC(=O)c4cccc(F)c4)cc13)CCCC2
 : 102	106
O=C(CC1NCCNC1=O)Nc1cccc(F)c1 (stereo unspecified)
 : 99	104
COc1ccccc1C(=O)Nc1c(C(=O)Nc2ccccc2F)oc2ccccc12
 : 96	100
Cc1cccc(NC(=O)c2c(NC(=O)c3ccco3)sc3c2CCC(C)C3)c1 (stereo unspecified)
 : 103	111
CCOc1ccc2nc(N3CCCC(C(=O)NCCCOC)C3)sc2c1 (stereo unspecified)
 : 111	117

Some of these compounds in order of molecular weight, low to high.
Every second line gives: PV pol inh	PV pol inh intensity
O=C(CC1NCCNC1=O)Nc1cccc(F)c1 (stereo unspecified)
 : 99	104
CC(C)c1nc2ccc(C(=O)NC(C)c3ccccc3)cc2o1 (stereo unspecified)
 : 114	99
CCc1cc(C(=O)Nc2cnn(Cc3ccccc3C)c2)no1
 : 104	105
CCC(C)NS(=O)(=O)c1ccc(N2CCCCS2(=O)=O)cc1 (stereo unspecified)
 : 112	100
O=C(Nc1cc(Cl)ccc1O)c1cc(-c2ccc3c(c2)OCO3)on1
 : 103	106
Cc1c(-c2ccccc2)c(=O)oc2c(CN3CCN(C)CC3)c(O)ccc12
 : 95	89
Cc1ccc2c(c1)sc1nc(-c3cc4cc(Cl)ccc4oc3=O)cn12
 : 101	99
CCOc1ccc2nc(N3CCCC(C(=O)NCCCOC)C3)sc2c1 (stereo unspecified)
 : 111	117
COc1ccc(NC(=O)Cc2csc(COc3cccc(C)c3)n2)c(OC)c1
 : 109	116
COc1ccccc1C(=O)Nc1c(C(=O)Nc2ccccc2F)oc2ccccc12
 : 96	100
O=C(c1cc(-c2ccc(Cl)cc2)on1)N(Cc1cccc(F)c1)Cc1ccco1
 : 109	102
Cc1ccccc1-n1nc(C)c2c1NC(=O)CSC2c1ccccc1C(F)(F)F (stereo unspecified)
 : 107	108
COc1ccc(Cn2c(=O)c3oc4ccccc4c3n(Cc3cccc(C)c3)c2=O)cc1
 : 101	107
COc1ccccc1Nc1c2c(nc3ccc(NC(=O)c4cccc(F)c4)cc13)CCCC2
 : 102	106
COc1ccc(NC(=O)CCS(=O)(=O)c2ccc3c(c2)n(C)c(=O)c(=O)n3C)cc1Cl
 : 105	105
CCOc1ccccc1NC(=O)C1CCN(S(=O)(=O)c2ccc(Br)cc2)CC1
 : 107	115
CCOc1ccc(C(C)C)cc1S(=O)(=O)Nc1cccc(-c2ccc(N3CCOCC3)nn2)c1
 : 110	110
COc1ccccc1NC(=O)C1=C(C)Nc2nc(SCc3ccccc3Cl)nn2C1c1ccncc1 (stereo unspecified)
 : 104	104
CCN(CC)S(=O)(=O)c1ccc2c(c1)N(CC(=O)N1CCN(c3cc(Cl)ccc3C)CC1)C(=O)CO2
 : 104	107

Following part.
Every second line gives: PV pol inh	PV pol inh intensity
O=S(=O)(c1ccc(F)cc1)N1CCC(Oc2cccc(C(F)(F)F)c2)CC1
 : 106	104
O=C(NCCc1ccccc1)c1cc(-c2ccc(Br)cc2)on1
 : 104	106
CSc1cccc(NC(=O)N2CCN(S(=O)(=O)c3ccc4c(ccn4C)c3)CC2)c1
 : 110	112
CCOc1ccc(NS(=O)(=O)c2ccc3[nH]cc(C(=O)NCc4ccccc4)c(=O)c3c2)cc1
 : 112	108
Cc1ccccc1C(=O)Nc1sc2c(c1C(=O)N1CCC(C)CC1)CCC(C)C2 (stereo unspecified)
 : 109	110
N#Cc1nc(/C=C/c2ccc(F)cc2)oc1N1CCN(c2ccccc2)CC1
 : 110	117
Cc1cccc(Nc2nnc(-c3ccc(C)c(S(=O)(=O)N4CCOCC4)c3)c3ccccc23)c1
 : 103	105
CCOc1ccc(C(=O)N2CCN(Cc3cc(=O)n4nc(-c5cccc(OC)c5)sc4n3)CC2)cc1
 : 112	114
Cc1ccc2nc(N(CCCN(C)C)C(=O)c3ccco3)sc2c1
 : 94	96

This is a subset; the hit share may differ from the screen's.
